GLA inh pH 4.5: alpha-galactosidase A (human) inhibition, pH 4.5; purified enzyme, 4-MU-alpha-Gal fluorescence, pH 4.5; P06280; activity change, negative = inhibition, % at 105 µM; 230,000 tested, under 10 active; inconclusive = small, poorly fitted or top-dose-only inhibition, or a rising curve; inactive = flat fitted curve, though single readings scatter; no compound was filed as active;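 further: 0% = full activity with enzyme and -100% = basal without enzyme; dose as in the result columns while the protocol names 77 µM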
Target sequence (P06280 whole entry, looked up): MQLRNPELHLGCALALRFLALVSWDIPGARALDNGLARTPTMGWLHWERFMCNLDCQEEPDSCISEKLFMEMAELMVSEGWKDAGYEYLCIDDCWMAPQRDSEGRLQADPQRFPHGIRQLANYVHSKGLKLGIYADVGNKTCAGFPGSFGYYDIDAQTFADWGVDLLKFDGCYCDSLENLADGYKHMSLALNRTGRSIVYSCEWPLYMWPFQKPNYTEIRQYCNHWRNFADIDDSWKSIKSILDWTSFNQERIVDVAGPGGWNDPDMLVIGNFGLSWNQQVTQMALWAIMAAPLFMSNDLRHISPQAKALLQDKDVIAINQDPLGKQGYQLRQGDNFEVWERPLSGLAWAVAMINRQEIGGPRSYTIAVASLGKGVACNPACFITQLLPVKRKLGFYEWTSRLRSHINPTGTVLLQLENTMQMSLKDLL
Rango dissoc inh: prevents RanGTP from dissociating the Rango-importin beta complex. O95149+P62826. Biochemical FRET Rango-importin beta, RanGTP-induced dissociation. Potency, µM (doses to about 46.1 µM), for inactives: at the highest dose activity change, negative = inhibition. hit rate 0.071% among 340,000. AID 540253; active means falling FRET ratio curve, often poorly fitted, with flat reads before Ran was added; inconclusive means other falling curves, or compound fluorescence or quenching; inactive means flat or rising ratio curve;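 further: potency means the concentration at half of the fitted maximal effect; % of control where 0% means no effect; nearly all actives have a fitted effect of over 45% in size; -100% = wells without RanGTP and RCC1; the record marks most hits as doubtful in a second field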
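FRET read at 45 min, room temperature: inhibitors block the CFP/YFP signal rise when RanGTP (0.6 uM Ran, 2 mM GTP, 0.2 uM RCC1) frees Rango (0.1 uM) from importin beta (0.25 uM). Pre-read after 5 min compound exposure flags interference.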
miR-21 reporter: miR-21 reporter, rising signal; Potency, µM (doses to about 38.3 µM), without a hit: top-dose reporter change, positive = more light; HeLa miR-21 FLuc reporter, luciferase, 48 h; 340,000 tested, under 10 active; active = well fitted rising curve with a large enough effect; inconclusive = small, poorly fitted or top-dose-only effect; inactive = no such curve, though single readings can be large or run the other way;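 further: % of control where 0% means no effect; miR-21 action dims this reporter so a rising signal means less miR-21 action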
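HeLa miR-21-FLuc reporter line, endogenous miR-21; 2000 cells/well in DMEM/10% FBS; compound titration up to ~40uM final, 48 h, 37 degree Celsius; luciferase detection reagent, 15 min lysis, CCD luminescence.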
Rango complex inh: inhibitors of Rango-importin beta complex formation; Rango CFP/YFP FRET sensor + importin beta, 45 min; Potency, µM (doses to about 92.2 µM), without a hit: at the highest dose inhibition of complex formation; hit rate 0.031% among 340,000; active = rising FRET ratio curve, often small or poorly fitted; inconclusive = mostly compound fluorescence or quenching in the first reads; inactive = flat curves in all reads;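 further: potency means the concentration at half of the fitted maximal effect; 0% = DMSO wells and 100% = buffer wells lacking importin beta; nearly all actives have a fitted effect of over 15% in size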
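FRET biosensor Rango (snurportin 1 IBB between N-terminal EYFP and C-terminal Cerulean), 50 nM in PBS/1 mM DTT/0.02% Tween-20/0.1% BSA, preincubated 5 min RT with compound; 0.125 microM importin beta added, 45 min RT, CFP/YFP FRET ratio read.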
* = called active by the depositor; ? = inconclusive; · = no result given. The list is partial, so the mix of outcomes need not match the whole.

Every second line gives: GLA inh pH 4.5 | Rango dissoc inh | miR-21 reporter | Rango complex inh
> Cc1ccc(C[n+]2ccccc2)cc1
  · | -10% | · | -2.7%
> COc1ccc(NC(=O)CSc2nc3c(c(=O)n2-c2ccccc2)SCC3)c(OC)c1
  -9 | 18% | -4% | -0.6%
> CC(/C=C/c1ccccc1F)=N\NC(=O)C(C)C
  6 | -6% | -50% | 1.5%
> CCCOc1cccc(C(=O)NCCNC(=O)c2cnccn2)c1
  · | 7% | 0% | -1.5%
> O=C(O)c1ccc(COc2ccc3c4c(c(=O)oc3c2)CCC4)o1
  -5 | -2% | -9% | -0.2%
> Cc1ccccc1Cn1nnc(-c2ccc(C(=O)O)cc2)n1
  -5 | 4% | 2% | 3.1%
> COc1ccc(C(=O)OCC(=O)NC(Cc2ccccc2)C(C)=O)cc1S(=O)(=O)N1CCCC1 (centres undefined)
  · | -3% | · | -0.4%
> Cc1ccc(-c2nsc(SCC(=O)NCc3ccc4c(c3)OCO4)n2)cc1
  3 | -10% | -8% | -3.2%
> Cc1cccc(C2CC(c3ccc(Cl)cc3)Nc3nc(N)nn32)c1 (centres undefined)
  -8 | ? | -1% | ?
> CCOCCCNC(=O)c1ccc2c(c1)ncn2C1CCCC1
  3 | -5% | -18% | -6.2%
> COc1ccc(S(=O)(=O)NCc2cn3c(C)csc3n2)cc1F
  11 | -3% | -1% | 1.2%
> CSC1=NC(C(Cl)(Cl)Cl)N=C(c2ccccc2)N1 (centres undefined)
  5 | -6% | 24% | -0.3%
> NC(=O)CC(NC(=O)c1ccc(Br)cc1)c1ccc(NC2CCCCCCC2)c([N+](=O)[O-])c1 (centres undefined)
  · | 59% | -12% | 6.3%
> CC(C)c1ccc(C(=O)N/N=C/c2cccc(Cl)c2Cl)cc1
  2 | 2% | 0% | 3.7%
> CN(C)C(CNC(=O)C1CCN(C(=O)/C=C/c2ccccc2)CC1)c1ccccc1 (centres undefined)
  · | -5% | -23% | ?

A second format for 3 compounds above.
SMILES | GLA inh pH 4.5 | Rango dissoc inh | miR-21 reporter | Rango complex inh
COc1ccc(NC(=O)CSc2nc3c(c(=O)n2-c2ccccc2)SCC3)c(OC)c1 | -9 | 18% | -4% | -0.6%
CC(/C=C/c1ccccc1F)=N\NC(=O)C(C)C | 6 | -6% | -50% | 1.5%
CCCOc1cccc(C(=O)NCCNC(=O)c2cnccn2)c1 | · | 7% | 0% | -1.5%

The list goes on:
Every second line gives: GLA inh pH 4.5 | Rango dissoc inh | miR-21 reporter | Rango complex inh
> Cn1c(-c2cccs2)nc2ccccc21
  2 | 5% | -37% | -1.0%
> Cc1cc(=O)[nH]c(N/N=C/c2c(C)nn(-c3ccccc3Cl)c2Cl)n1
  7 | -11% | 15% | -2.6%
> CSc1ccccc1C(=O)NC1CCCCC1
  -8 | 1% | 1% | 1.0%
> CC(=O)c1c(C)[nH]c(C(=O)OCC(=O)C(C)(C)C)c1C
  -3 | 5% | -22% | -3.9%
> Cc1ccc(NCCC(=O)c2ccc(Cl)c(Cl)c2)cc1
  8 | -1% | -4% | -3.5%
> Cc1ccccc1-n1c(SCC(N)=O)nc2sc(-c3ccccc3)cc2c1=O
  9 | 2% | -6% | -1.9%
> CC(C)(C)C1CCC2(CC1)Nc1cccc3cccc(c13)N2
  11 | -28% | 9% | 1.0%
> CCOc1cc(/C=N/NC(=O)CN2CCCCC2)ccc1OCc1ccc(Cl)cc1
  -1 | 26% | -10% | 6.9%
> O=C(Nc1ccc(O)cc1)c1ccc2c(c1)C(=O)N(Cc1ccccc1)C2=O
  · | 3% | 8% | 0.4%
> COc1ccc(NC(=O)C2Cc3cccc(OC)c3O/C2=N\O)cc1 (centres undefined)
  · | -20% | 9% | 1.0%
> COc1cccc(C2CC(=O)NC(SC)=C2C#N)c1 (centres undefined)
  -17 | -7% | -2% | -2.3%
> Cc1cc(C)n2cc(CSc3nnnn3C)nc2n1
  3 | -5% | 0% | -1.1%
> CCOc1cc(CNc2ccc(CNc3ncn[nH]3)cc2)ccc1OCc1ccccc1
  -11 | 2% | 17% | -1.5%
> O=C(CSc1ccc(C(F)(F)F)cc1[N+](=O)[O-])NCCOc1ccccc1
  -3 | 2% | 0% | -2.8%
> Cc1[nH]c2ccccc2c1C1(O)C(=O)N(C(C)C)c2ccccc21 (centres undefined)
  2 | -5% | 1% | 1.2%

Single entries from the entries so far.
`Cc1ccccc1-n1c(SCC(N)=O)nc2sc(-c3ccccc3)cc2c1=O` @ Rango complex inh = -1.9%
`Cn1c(-c2cccs2)nc2ccccc21` @ Rango complex inh = -1.0%
`Cc1cc(C)n2cc(CSc3nnnn3C)nc2n1` @ Rango dissoc inh = -5%
`CC(C)(C)C1CCC2(CC1)Nc1cccc3cccc(c13)N2` @ GLA inh pH 4.5 = 11
`COc1cccc(C2CC(=O)NC(SC)=C2C#N)c1` (centres undefined) @ Rango complex inh = -2.3%

Structural class: the entries above containing a COOH group (two)
Every second line gives: GLA inh pH 4.5 | Rango dissoc inh | miR-21 reporter | Rango complex inh
> O=C(O)c1ccc(COc2ccc3c4c(c(=O)oc3c2)CCC4)o1
  -5 | -2% | -9% | -0.2%
> Cc1ccccc1Cn1nnc(-c2ccc(C(=O)O)cc2)n1
  -5 | 4% | 2% | 3.1%

(next part)
Every second line gives: GLA inh pH 4.5 | Rango dissoc inh | miR-21 reporter | Rango complex inh
> CC(NS(=O)(=O)c1ccc(Cl)cc1)C(=O)NCc1ccco1 (centres undefined)
  -1 | -1% | 1% | 0.0%
> O=C(NCCCn1ccnc1)c1cccc(Br)c1
  · | -11% | -1% | 0.1%
> CCN1CCN(C(=O)c2ccc(CSc3ccc(C)cc3)cc2)CC1
  ? | 2% | 6% | 0.5%
> COc1ccc2c(c1OC)C(=O)OC2C/C(=N\NC(N)=O)c1ccccc1 (centres undefined)
  0 | -1% | 0% | -3.1%
> CCn1c(O)c(/C=N/N=C2CCCC2)c2ccc(C3=NNC(=O)CC3)cc21
  1 | -26% | -7% | -6.5%
> Cc1ccc(S(=O)(=O)NCCC2=CCCCC2)cc1
  · | 17% | · | -0.7%
> COc1cc(OC)cc(C(=O)Nc2cccc(C(C)=O)c2)c1
  3 | -1% | -31% | -3.5%
> O=C(NCc1cccs1)C1CCN(S(=O)(=O)c2cccc3cccnc23)CC1
  3 | 0% | -11% | 0.0%
> O=C(Cn1cnc2c(nnn2Cc2ccc(Cl)cc2)c1=O)NC1CCCC1
  1 | ? | 0% | 3.2%
> Cc1ccc(NS(=O)(=O)c2ccc(OCC(N)=O)cc2)cc1
  2 | -8% | -2% | -0.3%
> COCCCNC(=O)CSc1nc2cc(C(=O)NCCOC)ccc2c(=O)n1Cc1ccc2c(c1)OCO2
  · | -5% | 8% | -1.3%
> CCOC(=O)c1[nH]c(C)c(C(=O)NCc2ccco2)c1C
  6 | -11% | -6% | 2.6%
> O=C(CCN1CCOCC1)NC12CC3CC(CC(C3)C1)C2
  · | 0% | -10% | 0.3%
> O=C1C2CCCN2C(=S)N1c1ccccc1 (centres undefined)
  · | 1% | -8% | -0.5%
> CCOC(=O)C1=C(C)N(CCCCCC(=O)O)C(=O)NC1c1ccccc1OC(=O)c1cccs1 (centres undefined)
  5 | 2% | -5% | -2.5%

Grouped by structure: those above with a nitro group on carbon
Every second line gives: GLA inh pH 4.5 | Rango dissoc inh | miR-21 reporter | Rango complex inh
> NC(=O)CC(NC(=O)c1ccc(Br)cc1)c1ccc(NC2CCCCCCC2)c([N+](=O)[O-])c1 (centres undefined)
  · | 59% | -12% | 6.3%
> O=C(CSc1ccc(C(F)(F)F)cc1[N+](=O)[O-])NCCOc1ccccc1
  -3 | 2% | 0% | -2.8%

(list continues)
Every second line gives: GLA inh pH 4.5 | Rango dissoc inh | miR-21 reporter | Rango complex inh
> Cn1c(-c2ccc(Br)o2)nc2ccccc21
  7 | 11% | -32% | 4.8%
> CCCC(=O)Nc1ccc2c(c1)c1ccccc1n2CC
  6 | 12% | 6% | -1.1%
> O=C(NC(=S)Nc1ccccc1)C1CCCCC1
  · | 18% | 12% | 4.0%
> COc1ccccc1C(=O)CN1C(=O)NC2(CCCc3ccccc32)C1=O (centres undefined)
  · | 2% | · | 0.3%
> CCCCNC(=O)C(C#N)c1nc2ccccc2nc1N1CCCC1 (centres undefined)
  -6 | · | 1% | ·
> COc1cccc(NC(=O)Nc2c(C)n(C)n(-c3ccccc3)c2=O)c1
  6 | 7% | -2% | 3.6%
> Cc1ccc(CC(=O)Nc2nnc(-c3ccc(F)cc3)o2)c(C)c1
  · | -2% | 1% | -0.6%
> Cc1cccc(C)c1-n1nnnc1SCSc1nnnn1-c1c(C)cccc1C
  -12 | -3% | -1% | -4.8%
> COc1ccc(N2C(=O)c3ccccc3NC2c2ccc(OC)c(COc3ccccn3)c2)cc1 (centres undefined)
  3 | -5% | -55% | 1.0%
> CN(C)C1N(C(=O)c2ccccc2)N=C2c3ccccc3S(=O)(=O)N21 (centres undefined)
  8 | 6% | -1% | -1.7%
> CC(CCCN(C)C)C(Cc1ccccc1)c1ccccc1 (centres undefined)
  · | -7% | · | -0.8%
> Cc1cccc(N2CCN(CC(O)COc3ccccc3)CC2)c1 (centres undefined)
  · | -8% | · | -3.2%
> CC(O)CNc1ccc(-c2nn(C)c(=O)c3ccccc23)cc1[N+](=O)[O-] (centres undefined)
  -3 | -2% | -11% | -1.6%
> CCOc1cc(C(=O)N2CCC3(CC2)NCCc2[nH]cnc23)cc(OCC)c1OCC
  · | -2% | -4% | -0.5%
> CC(=O)NCc1ccc2[nH]c(C)cc2c1
  2 | 4% | -7% | ?
> Cc1ccc(S(=O)(=O)Oc2ccccc2/C=C2\SC(=O)NC2=O)cc1
  6 | 30% | 2% | 6.2%
> COCCN(C(=O)c1csnn1)C(C(=O)NC1CCCC1)c1ccc(C)cc1 (centres undefined)
  · | -20% | -1% | 2.2%
> O=C(Nc1ccnn1C1CCN(Cc2ccc(O)c(Cl)c2)CC1)C1CCCC1
  · | 13% | -6% | -2.3%
> CC1CCN(S(=O)(=O)c2ccc3c(c2)CC(C)N3C(=O)C2CCC2)CC1 (centres undefined)
  · | 0% | -1% | 3.5%
> CC(C)(C)C(=O)/C(=C/c1ccc(Cl)cc1)n1cncn1
  · | 11% | ? | 1.9%
> O=C(Nc1sc2c(c1C(=O)O)CCCCC2)c1ccccc1
  -1 | 8% | 14% | 0.0%
> Cc1ccc(C(c2ccc(C)o2)c2cccc([N+](=O)[O-])c2O)o1
  -7 | 0% | -4% | -6.7%
> CCSc1cc(N2CCCC2)nc(-c2ccccc2)n1
  -8 | 14% | -1% | 0.6%
> CC(c1ccco1)N(C(=O)c1ccc(C(F)(F)F)cc1)c1ccccn1 (centres undefined)
  -9 | 14% | -9% | 0.3%
> O=C(Nc1ccc(Oc2cccnc2)cc1)C1CCN(Cc2cc(Cl)ccc2O)CC1
  · | -2% | 27% | -0.2%
> O=C(Nc1ccc2c(c1)S(=O)(=O)N=C1CCCCCN12)c1ccccc1Cl
  7 | 6% | -1% | -1.2%
> O=C(NCc1cccs1)c1ccccc1C(=O)NCc1cccs1
  4 | -2% | -5% | -4.0%
> O=C(Nc1cccc(S(=O)(=O)N2CCOCC2)c1)C1=NN(c2ccccc2)C(=O)CC1
  · | 25% | -4% | -0.7%
> O=C(COC(=O)c1cc[n+]([O-])cc1)Nc1cccc(Br)c1
  · | 9% | · | -4.4%
> O=C(Cn1cc(C(F)(F)F)cc(Cl)c1=O)Nc1cc(S(=O)(=O)N2CCOCC2)ccc1Cl
  1 | 0% | -1% | 0.7%
> COc1ccccc1-c1nnc(Nc2nc3c(OC)cccc3s2)o1
  -16 | -7% | 1% | -2.6%
> CSc1nc(-c2ccco2)nn1C(=O)c1ccccc1
  2 | -3% | -6% | -2.2%
> Cc1cccc(-n2c(SCC(=O)c3c(N)n(C4CC4)c(=O)[nH]c3=O)nnc2N2CCOCC2)c1
  · | -3% | · | 0.6%
> Cc1cc(C)cc(-n2cnc3cc(C(=O)O)ccc32)c1
  0 | 0% | -9% | -3.5%
> O=C(NCCCN1CCCC1)[C@H](CSCc1ccccc1)N1Cc2ccccc2C1=O
  -24 | 4% | -1% | 1.6%
